# TRPML1 inh = human mucolipin-1 channel inhibition; activity change, negative = inhibition, % (no concentration beside the values); TRPML1-inducible cells, Ca2+ dye fluorescence, FDSS; hits give low values; inhibition of EC80 agonist-evoked calcium signal; hit rate 0.02% among 390,000; in the data active means activity change below about -50%; inconclusive means about -30% to -50%; inactive means above about -30%;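 also: stimulus is agonist 54-4 at its EC80 concentration; % is scaled to controls: 0 for no effect and ±100 for the full control effect; compound concentration not given in the record; the text of the record puts the active cut at -80%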
# Target sequence (Q9GZU1 whole entry, looked up): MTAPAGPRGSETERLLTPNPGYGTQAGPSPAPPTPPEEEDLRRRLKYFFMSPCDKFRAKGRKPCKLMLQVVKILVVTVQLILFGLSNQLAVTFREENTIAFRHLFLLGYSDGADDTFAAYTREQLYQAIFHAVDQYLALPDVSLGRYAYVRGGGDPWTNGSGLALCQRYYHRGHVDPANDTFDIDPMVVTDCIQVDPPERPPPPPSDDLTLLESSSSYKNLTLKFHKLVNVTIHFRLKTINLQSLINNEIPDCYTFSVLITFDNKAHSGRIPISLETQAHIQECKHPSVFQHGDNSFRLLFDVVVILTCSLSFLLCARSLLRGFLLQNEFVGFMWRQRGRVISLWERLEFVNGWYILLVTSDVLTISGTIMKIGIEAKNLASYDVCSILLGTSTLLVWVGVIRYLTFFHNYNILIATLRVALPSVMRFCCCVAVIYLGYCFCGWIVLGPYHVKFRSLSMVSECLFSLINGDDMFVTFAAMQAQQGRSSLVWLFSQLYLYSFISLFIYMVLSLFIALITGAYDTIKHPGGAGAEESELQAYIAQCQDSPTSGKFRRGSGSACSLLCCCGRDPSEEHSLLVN
#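 Calcium fluorescence in TRPML1-DL cells induced overnight with Tet: a 110 s read after compound pin addition, then a 110 s antagonist read after challenge with 54-4 at 4 uM final (EC80).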
# TRPML1 ag = activates the human TRPML1 channel; Q9GZU1; TRPML1-expressing cells, Ca2+ dye fluorescence, FDSS; host cell line not named in the record; reference of the full effect not given here; activation, % (no concentration beside the values); hit rate 0.12% among 410,000; AID 624414; in the data active = activation above about 50%; inconclusive = about 30% to 50%; inactive = below about 30%; also: 0% is about no effect; the text of the record puts the active cut at 80%
#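 Cells: TRPML1-DL, 1X Tet inducer, ~16 h at 37 degrees C/5% CO2. Dye: ABD Ca8 no-wash + quencher, 45-90 min RT. Read: 10 s baseline, compound add, 110 s agonist phase; 54-4 EC80 (4uM final), 110 s antagonist phase.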
# TRPV1 potentiator = enhances activation of the human vanilloid receptor TRPV1; hit rate 0.02% among 320,000; TRPV1-expressing cells, Fluo-8 calcium influx, capsaicin EC20 potentiation; host cell line not named in the record; control for the full effect not named in the record; Q8NER1; potentiation, % at 8.33 µM; AID 540277; active means potentiation above 80%; inconclusive means 30% to 80%; inactive means below 30%; also: 0% is about no effect
#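 TRPV1-expressing cells were cultured overnight at 35.5C and loaded with Fluo-8 calcium dye for 40 to 90 min at room temperature. After a 10 s baseline, compound was added and calcium influx was read kinetically for 3 min (ex 480/em 520 nm).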
# D2 PAM = potentiates the human D2 dopamine receptor allosterically; DiscoveRx D2 beta-arrestin cells, luminescence, 90 min; 100% = 57 uM dopamine signal; potentiation, % (test concentration not listed); P14416; hit rate 0.23% among 360,000; active = potentiation of 50% or more; inconclusive = 30% to 50%; inactive = 30% or less;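 also: compound concentration not given in the record; tested on top of an EC20 dose of dopamine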
# Target sequence (P14416 whole entry, looked up): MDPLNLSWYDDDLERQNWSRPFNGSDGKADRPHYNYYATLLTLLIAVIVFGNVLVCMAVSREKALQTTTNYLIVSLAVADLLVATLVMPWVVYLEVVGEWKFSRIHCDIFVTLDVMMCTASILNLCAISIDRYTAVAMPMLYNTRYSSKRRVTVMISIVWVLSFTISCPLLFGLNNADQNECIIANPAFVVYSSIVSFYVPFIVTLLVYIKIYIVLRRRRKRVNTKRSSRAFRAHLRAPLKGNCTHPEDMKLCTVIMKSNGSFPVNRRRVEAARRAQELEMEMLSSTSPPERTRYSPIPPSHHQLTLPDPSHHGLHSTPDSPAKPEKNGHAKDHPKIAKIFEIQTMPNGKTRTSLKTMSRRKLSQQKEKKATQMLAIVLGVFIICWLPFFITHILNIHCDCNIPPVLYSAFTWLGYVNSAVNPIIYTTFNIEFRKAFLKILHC
#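 PathHunter D2 cells, attached overnight at 37 deg C, received compound in DMSO plus dopamine at EC20 (50 nM final) for 90 min at 37 deg C. Beta-arrestin recruitment was read as luminescence after 1 h with detection reagent at ambient temperature.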
# CtBP-E1A inh = inhibitors of CtBP/E1A interaction | AlphaScreen GST-E1A/His-CtBP binding, 1536-well; hits give low values; control for the full effect not named in the record | activity change, % (concentration not given with the values) | hit rate 0.49% among 340,000 | AID 651724; in the data active means activity change below about -65%; inconclusive means about -30% to -65%; inactive means above about -30%; also: % is scaled to controls: 0 for no effect and ±100 for the full control effect
#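 Protein mix (5X: 125 nM each GST-E1A, His-CtBP) was incubated with pinned compound 2 h at 37 deg C in dark, in 50 mM Tris pH 8.0 buffer with 300 mM NaCl. Glutathione donor and nickel acceptor beads followed; AlphaScreen signal read after 1 h.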
# Six1-Eya2 inh = inhibitors of human Six1/Eya2 interaction; activity change, % (concentration not given with the values); hit rate 0.56% among 360,000; AlphaScreen GST-Six1/His-Eya2 binding, biochemical; hits give low values; control for the full effect not named in the record; Q15475+O00167; in the data active = activity change below about -65%; inconclusive = about -30% to -65%; inactive = above about -30%; also: % is scaled to controls: 0 for no effect and ±100 for the full control effect
#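 AlphaScreen with GST-Six1 and His-Eya2 (5X mix: 250 nM and 500 nM), glutathione donor and nickel acceptor beads; buffer 50 mM Tris pH 8.0, 300 mM NaCl, 1 mM TCEP; 1 h at 37 C in the dark.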
# * hit, by the source's call; ? = inconclusive; / = no result given.
Structure	TRPML1 ag	D2 PAM	TRPML1 inh	TRPV1 potentiator	Six1-Eya2 inh	CtBP-E1A inh
CCS(=O)(=O)N1Cc2ccccc2CC1C(=O)Nc1ncc(C)s1 (centres undefined)	0.6	-7	4	0	-3	/
O=C(Cc1ccccc1[N+](=O)[O-])NCc1ccccc1Cl	1.0	-5	-2	-18	2	9
O=C(NCc1ccccc1)C1CCCN(c2nc3ccsc3c(=O)s2)C1 (centres undefined)	-0.6	2	5	-9	-14	7
CCc1nc2ccc(C(=O)NCc3ccc4c(c3)OCO4)cn2c1N(CCC(C)C)CCN(C)C	2.5	-17	/	/	0	-22
Oc1ccccc1C1=NOC(O)(C(F)F)C1 (centres undefined)	-0.5	-1	-6	9	-2	0
COc1ccccc1C(=O)N/N=C(\C)c1cccnc1	1.3	3	8	/	2	-4
Cc1ccc([N+](=O)[O-])c2c1C(N1CCCC1)C(C)(C)O2 (centres undefined)	0.9	-8	-11	-6	-7	/
CCCNC(=O)COC(=O)c1ccccc1C(=O)N(C)C1CCCCC1	0.5	-5	-6	-6	-4	/
CCNC(=S)Nc1ccc2c(c1)c(=O)n(C)n2CC=C(C)C	-0.5	-5	/	/	-2	1
Cn1nnnc1NCc1ccc(Cl)c(Cl)c1	-0.5	-22	-2	-4	20	-3
CCOC(=O)c1cnc2c(-c3cccc(Br)c3)cnn2c1C	0.1	0	-1	-3	19	6
CC[C@]12c3[nH]c4ccc(OC)cc4c3CCN1C(=O)C(CC(=O)NCc1ccco1)C[C@@H]2C(=O)N1CCN(C(=O)c2ccco2)CC1 (some centres undefined)	0.0	-10	3	/	0	2
COc1ccc(-n2c(C)cc(C(=O)CSc3nnc(-c4ccoc4C)n3C)c2C)cc1	-0.7	-9	-16	-1	-10	-15
COc1ccc(C(=S)N2CCOCC2)cc1OC(=O)c1ccccc1Cl	0.5	-7	-7	14	-11	-10
Cc1ccc(C)c(NS(=O)(=O)c2c(C)nn(C)c2C)c1	0.2	-8	-10	0	4	-2
CCOC(=O)N/N=C/C(Cl)=C/c1ccccc1	-0.5	1	10	-9	-5	0
Clc1ccc(Oc2nc3c(Cl)cccc3s2)cc1Cl	0.0	-5	37	6	58	-3
N#C/C(=C/Nc1ccccc1)c1ccsc1	1.1	-8	2	20	-1	-13
CC(=O)Nc1ccc(NC(=O)C(=O)NCC(c2ccco2)N2CCc3ccccc32)cc1 (centres undefined)	1.5	2	-6	-2	-6	0
NC(=O)C1CCN(CC(O)CSc2ccc(F)cc2)CC1 (centres undefined)	-0.1	-7	10	19	0	5
O=c1nc(C(F)(F)F)nc2ccccn12	-0.4	-5	0	-2	4	3
O=C(NC1CCCC1)C(c1ccccc1)N(Cc1cccnc1)C(=O)Cc1cccs1 (centres undefined)	-0.8	-21	-11	-7	2	6
Cc1c(NC(=O)COC(=O)/C=C/c2cccc(Cl)c2)c(=O)n(-c2ccccc2)n1C	-0.5	-5	19	-4	0	/
COc1ccc(-c2noc(=O)n2Cc2cc(C)ccc2C)cc1	3.3	-3	-13	-7	32	28
O=C(N/N=C1\SCC(=O)N1CCc1ccccc1)c1cccs1	-0.4	1	-3	-4	3	0

# Some of the entries so far, with two lines to a compound:
# Every second line gives: TRPML1 ag | D2 PAM | TRPML1 inh | TRPV1 potentiator | Six1-Eya2 inh | CtBP-E1A inh
COc1ccccc1C(=O)N/N=C(\C)c1cccnc1
    1.3 | 3 | 8 | / | 2 | -4
Cc1ccc([N+](=O)[O-])c2c1C(N1CCCC1)C(C)(C)O2 (centres undefined)
    0.9 | -8 | -11 | -6 | -7 | /
CCCNC(=O)COC(=O)c1ccccc1C(=O)N(C)C1CCCCC1
    0.5 | -5 | -6 | -6 | -4 | /

# Grouped by structure: the entries above containing a furan ring, fused or not
Structure	TRPML1 ag	D2 PAM	TRPML1 inh	TRPV1 potentiator	Six1-Eya2 inh	CtBP-E1A inh
CC[C@]12c3[nH]c4ccc(OC)cc4c3CCN1C(=O)C(CC(=O)NCc1ccco1)C[C@@H]2C(=O)N1CCN(C(=O)c2ccco2)CC1 (some centres undefined)	0.0	-10	3	/	0	2
COc1ccc(-n2c(C)cc(C(=O)CSc3nnc(-c4ccoc4C)n3C)c2C)cc1	-0.7	-9	-16	-1	-10	-15
CC(=O)Nc1ccc(NC(=O)C(=O)NCC(c2ccco2)N2CCc3ccccc32)cc1 (centres undefined)	1.5	2	-6	-2	-6	0

# The listing continues:
Structure	TRPML1 ag	D2 PAM	TRPML1 inh	TRPV1 potentiator	Six1-Eya2 inh	CtBP-E1A inh
CCOc1ccc(-c2cc3cc(OC)c(OC)cc3c(C)n2)cc1	1.7	-1	11	0	-4	-8
O=C(NCCCNC(=O)c1ccccn1)c1ccc(Cl)cc1	0.4	-5	-15	4	2	3
Cn1c(=O)c2c(ncn2CC(=O)OCC(=O)Nc2ccccc2Cl)n(C)c1=O	0.2	-12	-1	2	9	5
CCn1c(CN2CCCCC2)nc2cc(S(=O)(=O)N3CCCCC3)ccc21	0.3	-15	8	-19	35	/
Cc1nc(-c2ccc(NC(=O)Cc3ccccc3)cc2)cs1	-1.6	-12	21	18	-12	8
CCC(=O)Nc1ccc(N2CCN(C(=O)c3ccccc3C)CC2)cc1	-0.2	5	-7	-1	-3	4
COc1ccc(C(=O)Nc2nnc(Cc3ccc(OC)c(OC)c3)s2)cc1	0.3	1	-4	-1	6	2
CN1C(=O)CC(N2CCN(CC(N)=O)CC2)C1=O (centres undefined)	1.4	0	9	-1	8	1
COc1ccc(-c2cc(C)no2)cc1S(=O)(=O)NCCCN1CCN(c2ccccc2)CC1	-1.2	-6	4	-4	-8	/
O=C(O)CCn1cc(/C=C/C(=O)c2ccc(Cl)cc2)c(-c2cccc(Br)c2)n1	-0.5	-3	6	?	-11	3
NC(=NC1CCCCC1)NS(=O)(=O)c1ccccc1	-1.7	-7	8	8	1	12
N#Cc1ccc(CSc2nnc(-c3ccncc3)o2)cc1	-0.6	-1	2	-12	3	-11
CC(NC(=O)c1cccc(N2CCCC2=O)c1)c1ccc2c(c1)OCCO2 (centres undefined)	-0.1	-5	9	3	-6	-2
CCOC(=O)c1c(NC(=O)CS(=O)(=O)c2cn(CC)c3ccccc23)sc2c1CCCC2	0.3	-4	15	26	-6	-4
CCC(CC)c1nnc(NC(=O)C2CC(=O)N(C3CCCC3)C2)s1 (centres undefined)	-0.4	0	-11	1	0	-3
COC(=O)c1ccc2cc(C)cc(C)c2n1	-0.2	-3	/	/	-16	-4
CCOC(=O)N1CCN(C(=O)c2ccc3c(=O)n4c(nc3c2)CCCCC4)CC1	1.0	6	-6	13	11	0
CCOC(=O)c1ccc(N2Cc3ccccc3C2)cc1O	0.4	25	-10	18	0	11
Nc1cc(=O)[nH]c(=O)n1CCc1ccccc1	0.0	-6	7	-2	3	-4
Cc1ccc(-c2cc(C(F)F)n3ncc(C(=O)Nc4c(C)nn(Cc5ccccc5Cl)c4C)c3n2)cc1	-1.2	-3	27	5	-3	0
CCC(C)(C)n1nnnc1C(c1cc2ccc(OC)cc2[nH]c1=O)N1CCc2ccccc21 (centres undefined)	-0.3	-13	2	18	-18	-25
COc1ccc(C2CC(c3ccc4ccccc4c3OC(C)=O)=NN2C(C)=O)cc1 (centres undefined)	1.3	1	17	-5	10	-5
Cc1cc(NS(=O)(=O)c2ccccc2)c(C)c(Cl)c1O	3.4	61*	11	-3	7	-25
O=C(CSc1nnc(-c2c[nH]c3ccccc23)o1)NCC1CCCO1 (centres undefined)	-0.3	-18	16	-9	-2	7
Cc1csc(NC(=O)C(C)N2C(=O)c3ccccc3S2(=O)=O)n1 (centres undefined)	-1.2	-14	21	16	1	26
COc1ccc([C@@H]2CC=C(C(=O)O)CN2S(=O)(=O)c2ccc(Cl)cc2)cc1	-0.7	-4	5	-27	1	/
COC(=O)c1ccccc1NC(=O)COc1ccccc1	3.5	-11	43	-16	19	28
COC(=O)C1=C(C)NC2=C(C(=O)C(C(=O)OC)C(c3ccc(OC)cc3)C2)C1c1ccccn1 (centres undefined)	-0.1	-17	23	15	-13	-3
Cc1c(CCNC=O)cc(C)c2c3c(oc12)CCCC3	2.1	-8	-15	/	-9	10
Cc1ccccc1OCC(=O)NN1Cc2ccccc2C1=N	-0.6	-6	19	-17	1	4
CC(C)NC(=S)NCc1cccs1	1.5	-16	11	2	8	-19
CCOc1ccc(-c2cncc3nccn23)cc1	-0.8	1	/	/	1	1
CC(=NNC(=S)Nc1cccc(C)c1)c1ccccn1	1.1	-17	-10	/	-81*	3
Cc1ccccc1NS(=O)(=O)c1cc(C(=O)Nc2ccccc2-c2ccccc2)ccc1Cl	3.3	0	67	-17	-10	-6
CCc1nnc(NC(=O)CSc2ccc(-c3cccs3)nn2)s1	-1.2	3	-2	15	14	16
Cc1c(CCC(=O)N2CCC(C(=O)O)CC2)c(=O)oc2cc3oc4c(c3cc12)CCCC4	/	-22	/	3	-1	-8
COc1ccc(-c2nc3c4ccccc4ccn3c2CN2CCCCC2)cc1OC	1.2	-23	8	-9	-17	-3
COc1ccc(C(=O)N2CCCC(C(=O)N3CCCCCC3)C2)cc1 (centres undefined)	-0.2	-5	9	16	2	7
CCC1(COC(=O)Nc2cccc(Cl)c2)COC1	0.6	-10	4	-1	4	7
CCCCCCN(C(=O)CCCN1C(=O)NC(c2ccc([N+](=O)[O-])cc2)C(C(=O)OCc2ccccc2)=C1C)C(C)C(=O)NCCCC (centres undefined)	0.2	/	27	/	-12	-11
CC(OC(=O)c1ccco1)C(=O)Nc1ncc(Cl)cc1Cl (centres undefined)	-0.2	-23	-18	-4	3	4
CCOC(=O)CC1=NC(=O)CS1	-1.2	16	-13	8	6	-1
CNC(=S)N/N=C/c1ccccc1Cl	1.8	5	15	11	-3	-3
CCCCn1c(N)c(N(CC)C(=O)c2ccc(-c3ccc(Cl)cc3)o2)c(=O)[nH]c1=O	-0.1	-1	-8	-4	-1	2
COc1ccc(C2CC(c3ccc([N+](=O)[O-])cc3)=NN2C(=O)c2ccccc2)cc1OC (centres undefined)	0.9	-5	28	5	-7	/
CCCCn1c(N)c(N(CCOC)C(=O)c2cc3c(s2)CCCCC3)c(=O)[nH]c1=O	-0.5	-14	8	-1	11	2
C[C@H](CO)N1C[C@H](C)[C@@H](CN(C)Cc2ccncc2)Oc2c(NC(=O)CCC(F)(F)F)cccc2C1=O	0.3	-6	-8	/	0	0
CCOc1ccc(NC(=O)CCC(=O)NNC(=O)c2ccccc2Cl)cc1	-0.3	-3	1	-1	2	6
O=C(CSc1nc2ccccc2c(=O)n1-c1ccc(F)cc1)Nc1ccc(N2CCOCC2)cc1	0.0	-3	-16	-7	2	-1
Cc1cccc(S(=O)(=O)N(C)C[C@@H]2OCc3cn(nn3)CCCC(=O)N([C@H](C)CO)C[C@H]2C)c1	-0.6	-5	-6	/	4	-8
COCC(C)NC(=S)NC(=O)c1cc(S(=O)(=O)N2CCOCC2)ccc1C (centres undefined)	2.2	-11	21	-5	13	-15
Cc1ccc(NC(=O)CCCNC(=O)c2ccc(Cl)cc2)c(Br)c1	-1.2	-9	-6	-6	1	11

# Source: PubChem
